VDR inhibitor: blocks the human vitamin D receptor. P11473. Potency, µM, inactives show max response, negative = inhibition, hits mostly inhibitors. VDR-SRC2-3 peptide fluorescence polarization, 2 h. 400,000 tested, 0.93% active; active means well fitted inhibition curve with a large enough effect; inconclusive means small, poorly fitted or top-dose-only effect, or another doubt; inactive means no such curve, though single readings can be large or run the other way; further: series mostly up to about 120 µM
Target sequence (P11473 whole entry, looked up): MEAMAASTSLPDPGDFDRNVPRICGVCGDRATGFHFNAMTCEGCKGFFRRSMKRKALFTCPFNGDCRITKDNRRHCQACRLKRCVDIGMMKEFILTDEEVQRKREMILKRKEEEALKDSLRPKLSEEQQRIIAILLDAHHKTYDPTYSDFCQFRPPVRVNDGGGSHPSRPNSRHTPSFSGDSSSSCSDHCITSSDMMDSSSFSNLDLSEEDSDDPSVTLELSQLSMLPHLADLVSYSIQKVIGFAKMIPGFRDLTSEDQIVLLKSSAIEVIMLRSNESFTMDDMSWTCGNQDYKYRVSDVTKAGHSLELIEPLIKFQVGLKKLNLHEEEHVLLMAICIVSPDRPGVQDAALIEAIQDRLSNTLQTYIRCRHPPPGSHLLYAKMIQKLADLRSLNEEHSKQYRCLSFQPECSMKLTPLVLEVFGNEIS
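After 23 nl compound addition and a short centrifugation, plates sat for 2 hours at ambient temperature; polarization of fluorescence then indicated loss of VDR binding to peptide SRC2-3.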
* marks the source's active call; other numbers are inactive results; ? = inconclusive; & = joins results of further samples; [ ] = dose if it differs, or a comment. On the % scale 0 is the no-effect control and ±100 the full control effect; potency means the concentration at half of the fitted maximal effect. Not all compounds are listed; rates above refer to the full screens.

VDR inhibitor,structure
8.2%,CSc1ccc(CNCc2c(C(=O)O)c(C)n(Cc3ccc(F)cc3Cl)c2C)cc1
-10.1%,Cc1ccc(C(=O)N2CCN(C(=O)N3CCOCC3)CC2)cc1
-19.6%,CCC1(CC)NC(=O)N(CC(=O)N2N=C(c3ccc(Cl)cc3)CC2c2ccco2)C1=O (centres undefined)
14.9%,CC(NS(=O)(=O)c1ccccc1)C(=O)NCc1ccco1 (centres undefined)
?,N#C/C(=C\c1cn(Cc2ccc(F)cc2)c2ccccc12)C(=O)NCc1ccco1
-2.6%&-13.2%,CCOC(=O)CCc1c(C)nc2c(c(C)nn2-c2ccc(C)cc2)c1C
-17.9%,COc1ccc(S(=O)(=O)N2CCCC2C(=O)n2nc(C)cc2C)cc1 (centres undefined)
-2.8%,O=C(CNCc1ccccc1)Nc1ccc(Cl)cc1
?,O=[N+]([O-])c1ccc(Sc2cccc3cccnc23)c([N+](=O)[O-])c1
-18.5%,COc1cccc(CC(=O)NNC(=O)CN(C)S(=O)(=O)c2ccc(C)cc2)c1
32.0%[activator],CCc1nnc(NC(=O)CN2CCN(Cc3cccc(OC)c3)CC2)s1
-2.6%,CC1(C(=O)NC2CCCCC2)CCC(=O)N1Cc1ccc2c(c1)OCO2 (centres undefined)

Single entries from the results shown.
In VDR inhibitor, CSc1ccc(CNCc2c(C(=O)O)c(C)n(Cc3ccc(F)cc3Cl)c2C)cc1 shows 8.2%
In VDR inhibitor, COc1cccc(CC(=O)NNC(=O)CN(C)S(=O)(=O)c2ccc(C)cc2)c1 shows -18.5%

Rewritten as comma-separated lines: six of the compounds above.
compound,VDR inhibitor
CSc1ccc(CNCc2c(C(=O)O)c(C)n(Cc3ccc(F)cc3Cl)c2C)cc1,8.2%
Cc1ccc(C(=O)N2CCN(C(=O)N3CCOCC3)CC2)cc1,-10.1%
CCC1(CC)NC(=O)N(CC(=O)N2N=C(c3ccc(Cl)cc3)CC2c2ccco2)C1=O (centres undefined),-19.6%
CC(NS(=O)(=O)c1ccccc1)C(=O)NCc1ccco1 (centres undefined),14.9%
N#C/C(=C\c1cn(Cc2ccc(F)cc2)c2ccccc12)C(=O)NCc1ccco1,?
CCOC(=O)CCc1c(C)nc2c(c(C)nn2-c2ccc(C)cc2)c1C,-2.6%&-13.2%

Going on with the list:
VDR inhibitor,structure
-10.9%,O=C(NCCc1ccccn1)c1cc(C(=O)C2CCCCC2)c[nH]1
9.5%,COc1ccc(NC(=O)COc2cccc3c2CCN(C)C3=O)c(OC)c1
-1.7%,COc1ccc(NS(=O)(=O)c2cc(NC(=O)c3ccccc3F)ccc2N2CCCC2)cc1
-1.3%,CCOC(=O)c1nc2ccccc2c(C)c1C
11.4%,COc1ccccc1CN1CC(C(=O)NCCc2ccc(C)o2)CCC1=O (centres undefined)
-11.5%,Cc1ccc(CS(=O)(=O)c2ccc(C(=O)N3CCN(c4ccccn4)CC3)cc2[N+](=O)[O-])cc1
-21.7%,CCCCn1c(N)c(N(CCC(C)C)C(=O)C2=NN(c3cc(C)ccc3C)C(=O)CC2)c(=O)[nH]c1=O
14.5%,CC(Sc1cccc(C(F)(F)F)c1)C(=O)NC(N)=O (centres undefined)
-10.1%,COc1cccc2sc3ccc(NCc4ccc5c(c4)OCO5)cc3c(=O)c12
-2.6%,C/C(=N\NC(=O)c1nnn(-c2nonc2N)c1-c1ccc2c(c1)OCO2)c1cccs1
-15.7%,O=C(CSc1nnc(C2CCCCC2)n1-c1ccccc1)NCc1ccco1
-15.2%,COc1ccc2cc(S(=O)(=O)NC3CC(C)(C)NC(C)(C)C3)ccc2c1
4.9%,CCc1nnc(NS(=O)(=O)c2ccc(NC(=O)c3ccc(C#N)cc3)cc2)s1
-5.0%,Cc1ccc(C(=O)Nc2cccc(-c3nc4ccccc4o3)c2)c(Cl)c1
?,CCN(Cc1ccncc1)S(=O)(=O)c1ccc(C(C)=O)cc1
7.6%,CCN(CC)S(=O)(=O)c1ccc(N2CCCC2)c(NC(=O)Cc2ccc(OC)cc2)c1
-8.3%,O=[N+]([O-])c1ccc(S(=O)(=O)N/N=C/c2ccsc2)cc1
-1.7%,O=C(CN1CCC(C(=O)c2ccc3c(c2)OCCO3)CC1)Nc1ccccc1F
?,N#Cc1cccc(-c2cc(-n3ccnc3)ncn2)c1
-8.5%,CCCCNC(=O)/C(=C\c1ccc([N+](=O)[O-])o1)NC(=O)c1ccccc1
2.7%,COc1cc(NC(=O)COc2ccccc2[N+](=O)[O-])ccc1NC(=O)c1cccs1
-12.0%,O=C(N/N=C/C(Br)=C/c1ccccc1)c1ccncc1
-3.5%,O=C1C(=NO)C(c2ccccc2)Oc2ccccc21 (centres undefined)
14.7%,CCCc1nn2c(=O)cc(COC(=O)CNC(=O)COc3ccc(C)cc3)nc2s1
-5.2%,CN(CC(=O)N1CCCc2c1c(=O)oc1ccc(O)cc21)Cc1ccccc1
3.2%,O=C(NCCc1ccncc1)Nc1ccc(Cl)c(Cl)c1
6.7%,Cc1noc2ncnc(Oc3ccc(F)cc3)c12
-13.4%,CCc1nn(-c2ccccc2)c2nc(-c3ccc(O)cc3)c3cc(OC)c(OC)cc3c12
-5.0%,Cc1ccc(O)c(C(=O)c2cnn(C(=O)c3cccc(S(=O)(=O)N(C)C)c3)c2)c1
10.7%,O=C(Nc1cccc(-c2cn3c(n2)SCC3)c1)c1ccc(Br)o1
-1.9%,Cn1cc(-c2cc3n(n2)CCC(=O)N3CCCC(=O)NCc2ccccc2Cl)c2ccccc21
14.0%,CC(NC(=O)c1cccc(N(C)C)c1)c1ccc(-n2ccnc2)cc1 (centres undefined)
3.4%,CC(=O)Nc1ccc(C(=O)OCC(=O)NCc2cccs2)cc1
3.4%,CC1CCN(S(=O)(=O)c2cccc3cccnc23)CC1
-17.5%,CC(C)CCN(C(=O)Cc1ccc(Cl)c(Cl)c1)c1c(N)n(Cc2ccccc2)c(=O)[nH]c1=O
7.0%,Cc1ccc(N2CC(C(=O)N3CCN(c4ccccc4)CC3)CC2=O)cc1 (centres undefined)
17.9%,COc1cc2c(cc1NC(=O)c1ccc3c(c1)OCO3)oc1ccccc12
2.6%,Cc1cccc(-c2nnc(SCC(=O)c3ccc(O)cc3O)n2C)c1
-2.6%,COc1cc(CN(C(=O)c2ccc(OC(C)C)cc2)c2ccccn2)cc(OC)c1OC
17.8µM*,COC(=O)C(N)CS (centres undefined)
3.7%,Cc1ccc(CN2CCN(Cc3ccc4ncccc4c3)CC2CCO)cc1 (centres undefined)
-4.2%,CNc1nc(C)c(C#N)c(-c2ccccc2)c1C(C)=O
4.5%,Cc1c(NC(=O)CSc2ccc(Cl)cc2)cccc1-c1nc2ncccc2o1
9.9%,CCOCCCNC(=O)c1cc(Sc2cccc(Cl)c2)nc2ccccc12
3.0%,O=C(Nc1ccccc1)OC1CCCCc2cccnc21 (centres undefined)
16.2%,CN(C)c1nc(C(=O)OCCO)nc(N(C)C)n1
5.1%,Cc1nnc(N2CCC(C(=O)NCCc3ccccc3)CC2)c2nn(-c3ccccc3)c(C)c12
8.5%,Cc1cc(C(F)F)nn1CC(=O)NC1C(=O)N2C(C(=O)O)=C(CSc3nnnn3C)CSC12 (centres undefined)
8.8%,COc1ccc(/C=C/C(=O)Nc2cc(S(=O)(=O)N3CCCCC3)ccc2N2CCCCC2)cc1OC
-21.9%,O=[N+]([O-])c1cc(C(F)(F)F)ccc1NCCc1c[nH]c2ccccc12
-0.1%,CC(=O)c1sc(NC(=O)c2ccc(Cl)cc2)nc1C
3.0%,CCOC(=O)c1sc2nc(N3CCOCC3)c3c(c2c1N)CC(C(C)C)OC3 (centres undefined)
-3.7%,COCCCn1c(SCc2cccc(C(F)(F)F)c2)nc2cc(OC)c(OC)cc2c1=N
-2.1%,CC(C)N(CC#CC(O)(c1ccccc1)c1ccccc1)C(C)C
-16.0%&8.1%,CCOC(=O)c1c(C)[nH]c(C)c1S(=O)(=O)N(C)CC(=O)NCc1cccc(Br)c1
7.2%,CN(C)S(=O)(=O)c1ccc(NC(=O)CN2CCC(Cc3ccccc3)CC2)cc1
-16.2%&-6.0%&-14.3%,O=c1c(O)c(-c2ccc(O)c(O)c2)oc2cc(O)cc(O)c12
2.8%,COC(=O)N/N=C(\C)c1ccco1
0.9%,COc1cccc(C2=CC(=O)C[C@H](c3ccc(OC)c(OC)c3)C2)c1
-9.5%,CC(C)(C)OC(=O)C[C@@H]1C/C=C\C[C@@H](CC(=O)N(CCO)Cc2ccccc2)C(=O)N2CCC[C@H]2COC1=O

Next section.
VDR inhibitor,structure
-10.9%,O=C(c1ccc(N2CCOCC2)c([N+](=O)[O-])c1)N1CCN(c2ccccc2F)CC1
8.2%,Cc1ccc(CNc2cc(C)nc3nc(-c4cccc(C)c4)nn23)cc1
-7.0%,CCOC(=O)c1cc(-c2ccc(C)cc2)n(CCC(=O)Nc2ccc(OC)c(OC)c2)c1C
-6.9%,CC[C@]12c3[nH]c4cc(CCC(=O)N(C)C)ccc4c3CCN1C(=O)[C@@H](CC(=O)NCC13CC4CC(CC(C4)C1)C3)C[C@@H]2C(=O)N1CCN(C(=O)c2ccco2)CC1
-20.1%,NC(=O)C(Cc1ccccc1)N1C(=O)c2ccccc2C1=O (centres undefined)
-20.6%,CCc1ccc(NC(=O)C(=O)NCc2ccccn2)cc1
4.9%,COc1ccccc1C(=O)N1CC2(C)CC1CC(C)(C)C2 (centres undefined)
19.2%,COc1ccc(Cn2c(CCC(=O)O)nc3cccnc32)cc1
-14.0%,Fc1ccc(-c2cc(-c3nnc4n3CCCCC4)c3ccccc3n2)cc1
-8.4%,O=c1c2ccccc2ncn1-c1ccc(Cl)cc1[N+](=O)[O-]
-3.5%,CCc1ccc(-c2cn(-c3nc(C)cc(C)n3)c(=N)o2)cc1
-8.3%,COc1ccc(C(=O)NCc2ccncc2)cc1OC
-0.2%,O=C(Nc1ccc2c(c1)OCO2)C1CC(c2ccccc2O)=NO1 (centres undefined)
-1.6%,NC(=O)C1=C[C@@H](c2ccc3c(c2)OCO3)C[C@@H](OCCCCO)O1
-7.6%,Cc1ccc(CNS(=O)(=O)c2ccc(CN3C(=O)c4cccnc4C3=O)s2)o1
-1.8%,CCOc1cccc(-c2cc(C(=O)Nc3ccon3)c3ccccc3n2)c1
-3.2%,CN(C)Cc1cc2ccccc2c2c1COC2
-3.8%,CCN(CC)CCCNc1oc(-c2ccc(OC)cc2)nc1C#N
0.5%,O=c1[nH]c(C2CCCN(S(=O)(=O)c3ccccc3)C2)nc2c1nnn2Cc1ccccc1 (centres undefined)
10.2%,O=C(NCC1CCCN(C(=O)c2cccc(C(F)(F)F)c2)C1)c1ccc(F)cc1 (centres undefined)
-1.6%,COC(=O)c1cc(S(=O)(=O)NCCc2ccccc2)c[nH]1
-7.7%,Cc1nc(NCCC(C)C)c2nnn(Cc3ccccc3)c2n1
21.7%,O=C(Nc1cccc(F)c1)C1CCCN(S(=O)(=O)c2ccc(-n3cnnn3)cc2)C1 (centres undefined)
-1.3%&-5.8%,O=S(=O)(c1ccccc1)N1CCN(Cc2ccccc2)CC1

Nothing new here: five of the compounds above.
VDR inhibitor,structure
-10.9%,O=C(NCCc1ccccn1)c1cc(C(=O)C2CCCCC2)c[nH]1
9.5%,COc1ccc(NC(=O)COc2cccc3c2CCN(C)C3=O)c(OC)c1
-1.7%,COc1ccc(NS(=O)(=O)c2cc(NC(=O)c3ccccc3F)ccc2N2CCCC2)cc1
-1.3%,CCOC(=O)c1nc2ccccc2c(C)c1C
11.4%,COc1ccccc1CN1CC(C(=O)NCCc2ccc(C)o2)CCC1=O (centres undefined)

Further results:
VDR inhibitor,structure
-19.9%,Cc1ccc(-c2cn3cc([N+](=O)[O-])ccc3n2)cc1
-3.3%,COc1ccc(-c2csc(NC(=O)[C@H](C)N3C(=O)C4CC=CCC4C3=O)n2)cc1OC (some centres undefined)
-12.7%,Cc1onc(-c2c(F)cccc2Cl)c1C(=O)Nc1c(C)n(C)n(-c2ccccc2)c1=O
-3.0%,CCCC(=O)Nc1cccc(NC(=O)c2cccc([N+](=O)[O-])c2C)c1
-11.0%,COc1ccc(CCN(Cc2cc3cc(C)ccc3[nH]c2=O)C(C)=O)cc1OC
13.3%,Cn1ncc(N=Cc2c(O)ccc3ccccc23)c1C(=O)Nc1cccc(Cl)c1
-0.6%,Cn1ncc(C#N)c1/N=C/N1CCCCCC1
-11.2%,Cc1nn(-c2ccccc2)c(Cl)c1/C=N/Nc1ccc(Cl)c(C(=O)O)c1
16.7%,CCOC(=O)c1ccc(NC(=O)CSc2nnc(-c3ccncc3)n2-c2ccccc2)cc1
3.5%,N=C1/C(=C\c2ccc(SCc3ccco3)o2)C(=O)N=C2SC=NN12
1.0%,O=c1c(-c2ccc(F)c(F)c2)nc2cncnc2n1-c1ccccc1
4.9%,Cc1c(Cl)cccc1NC(=S)NCc1ccc(F)cc1
-5.1%,CC1(C(=O)OCC(=O)Nc2ccc3ccccc3c2)CC1(Cl)Cl (centres undefined)
-2.0%,COc1ccc(NC(=O)CSc2nc3ccccc3c(=O)n2-c2ccc3c(c2)OCO3)c(OC)c1
-10.3%,O=C(O)CNC(=S)N(Cc1ccccc1)Cc1ccccc1F
15.5%,CN1C(=O)c2ccccc2Sc2ccc(NC(=O)N3CCN(c4ccc(F)cc4)CC3)cc21
-3.4%,COc1ccc2c(CNC3CCC(C)CC3)c(C(=O)O)n(Cc3ccc(F)cc3)c2c1 (centres undefined)
4.9%,C=CCN(c1ccccc1)S(=O)(=O)c1cc(C(=O)NC2=NCCS2)ccc1Cl
-12.0%,COc1ccc(N(C(C)C(=O)NC2CCCCCC2)S(C)(=O)=O)cc1 (centres undefined)
-0.8%,C[C@H]1COC(=O)[C@@H](Cc2ccc(F)cc2)C/C=C\C[C@H](CC(=O)N(CCO)Cc2ccccc2)C(=O)N1
39.8µM*,O=C(/C=C/c1ccccc1)CCN1CCOCC1
25.0%,CCC(C(=O)OCC(=O)Nc1cc(Cl)cc(Cl)c1)c1ccccc1 (centres undefined)
-4.2%,CCOc1ccc(C(=O)NCc2ccccc2)cc1Br

Screening results: PubChem, National Center for Advancing Translational Sciences (NCATS)
